Screening data (PubChem)
NPYLR7 ag = mosquito NPYLR7 agonism; hit rate 0.15% among 270,000; activation, % at 10 µM; HEK293T NPYLR7/Galpha15, GCaMP6s calcium fluorescence; AID 1259423; in the data active = activation above about 40%;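 note: 0% = vehicle and 100% = reference agonist at the receptor; some compounds past the cut are filed as inactive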
NPYLR7 ag max-min = second read-out of NPYLR7 ag, no call of its own (marks repeat the call); activation, %; measured here: Max-Min RFU normalised activation; some inactives read as strong as hits;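 span of the calcium signal over five minutes; 0% = vehicle and 100% = native peptide agonist; compound fluorescence can raise it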
* hit, by the source's call.

mol | NPYLR7 ag | NPYLR7 ag max-min
COC(=O)c1c2c(nc3c1c(-c1ccc(OC)cc1)nn3C1CCS(=O)(=O)C1)CCC2 (stereo not drawn) | 11 | 5
CC(C)CCC(C)NC(=O)C1(C)CCCC1 (stereo not drawn) | 9 | 4
CCN(C)C(=O)c1ccc(C2CCCN2C(=O)CCn2nnnc2C)s1 (stereo not drawn) | 20 | 4
Cc1ccc(S(=O)(=O)N(c2ccccc2)c2ccc(O)cc2)cc1 | 6 | 4
COc1ccccc1Oc1cnc(N)nc1-c1ccc(OCc2ccc(F)cc2)cc1O | 2 | 1
N#C/C(=C\c1ccc(O)c(O)c1)C(=O)NCc1ccccc1 | 85 | 37
CC1(C(=O)Nc2cccc(NS(C)(=O)=O)c2)CCN1Cc1ccc(OC(F)(F)F)cc1 (stereo not drawn) | -2 | -7
COC(=O)C1=C(C)N(C)C(=O)NC1c1cccc(OC)c1OC (stereo not drawn) | -2 | -11
O=C(CSc1nc(C(F)(F)F)cc(=O)[nH]1)NCc1ccccc1Cl | 4 | 1
CCCCc1ccc(C(=O)N2CCSC2c2cccc(OCc3ccccc3)c2)cc1 (stereo not drawn) | -2 | 2
COc1ccc(N2C(=O)/C(=C3/C(=O)N(C)c4ccccc43)SC2=S)cc1 | 6 | -5
Cc1ccc2nc(C)c(NC(=O)c3ccc(Br)o3)c(=O)n2c1 | -1 | -1
CCCCC1CN(CCNC(=O)c2cccc(N3CCNC3=O)c2)Cc2ccccc2O1 (stereo not drawn) | 32 | 15
CCOC(=O)C1=NN(c2ccc(OCC)cc2)C2=NC(C)=C(C(=O)OC)C(c3ccc(C)cc3)N12 (stereo not drawn) | -7 | -7
Cc1nc(-c2cc(O)cc(CCC3CCCCN3)c2)cc(-n2cccn2)n1 (stereo not drawn) | -2 | -5
Cc1cc(C)c2c(n1)nn1c(Nc3ccc(Br)cc3)cc(C)nc21 | 0 | 20
O=[N+]([O-])c1cc(S(=O)(=O)N2CCCC2)ccc1NN=C1CCCC1 | -1 | -4
CCCCOc1ccc(S(=O)(=O)Nc2ccc(Cl)cc2C(=O)NCCc2ccc(OC)cc2)cc1 | 7 | 10
Cc1cnc(NC(=O)[C@@H](NC(=O)OC(C)(C)C)C(C)(C)C)s1 | -1 | -6
C=CCn1cc(CN2C[C@H]3C[C@H](O)[C@@H](O)C[C@H]3C2)c(C)n1 | 0 | -1
COCCn1c(=NC(=O)c2ccc3ncsc3c2)sc2cc(C(=O)OC)ccc21 | 1 | -2
COc1ccccc1NC(=O)CSc1nc(=O)n2cccc(C)c2n1 | 13 | 10
NC(=O)NC(=O)CN1CCN(Cc2sccc2Br)CC1 | 13 | 13
CCN1CC(NCC(=O)NCc2ccccc2OC)CC1=O (stereo not drawn) | 6 | 5
COc1nc(N2CCOCC2)nc(C)c1[N+](=O)[O-] | 10 | 1
C=C1CC(=O)C2=C(C)C[C@H](O)[C@@H]3[C@H](OC(=O)[C@H]3C)[C@@H]12 | -9 | -14
CCOC(=O)C1CCCN(C(c2ccc([N+](=O)[O-])cc2)C2Sc3nc(CC)nn3C2=O)C1 (stereo not drawn) | -1 | 17
CN(C)CCCN(C(=O)Cc1ccccc1)c1nc2cc3c(cc2s1)OCO3 | 0 | -3
COc1ccc(-n2nc3c(c2NC(=O)/C=C\c2cc(OC)c(OC)c(OC)c2)CS(=O)(=O)C3)cc1 | -4 | -5
Cn1cc(C#N)cc1C(=O)N(Cc1ccc(F)cc1)CC(F)(F)F | 0 | -1

Record cards, from the list above. Screens in order: NPYLR7 ag	NPYLR7 ag max-min
O=[N+]([O-])c1cc(S(=O)(=O)N2CCCC2)ccc1NN=C1CCCC1 across the screens: -1	-4
CCN1CC(NCC(=O)NCc2ccccc2OC)CC1=O (stereo not drawn) across the screens: 6	5
CN(C)CCCN(C(=O)Cc1ccccc1)c1nc2cc3c(cc2s1)OCO3 across the screens: 0	-3
COc1ccccc1NC(=O)CSc1nc(=O)n2cccc(C)c2n1 across the screens: 13	10

The main list resumes; the 4 compounds before the break are reprinted first.
mol | NPYLR7 ag | NPYLR7 ag max-min
CCOC(=O)C1CCCN(C(c2ccc([N+](=O)[O-])cc2)C2Sc3nc(CC)nn3C2=O)C1 (stereo not drawn) | -1 | 17
CN(C)CCCN(C(=O)Cc1ccccc1)c1nc2cc3c(cc2s1)OCO3 | 0 | -3
COc1ccc(-n2nc3c(c2NC(=O)/C=C\c2cc(OC)c(OC)c(OC)c2)CS(=O)(=O)C3)cc1 | -4 | -5
Cn1cc(C#N)cc1C(=O)N(Cc1ccc(F)cc1)CC(F)(F)F | 0 | -1
COc1ccc(Nc2ncccc2C(=O)NCc2c(C)nn(-c3ccccc3C)c2C)cc1 | 9 | 8
O=C(Nc1nnc(SCc2cc(F)cc(F)c2)s1)C1CCCCC1 | 5 | 10
Cc1ccc(-c2nc(COC(=O)c3cc(Cl)c[nH]3)cs2)cc1 | -4 | -5
Oc1ccccc1N1CCN(Cc2csc(-c3cccs3)n2)CC1 | 2 | -3
CCCc1c(C(=O)NCc2cccnc2)cnn1-c1ccccc1C | 22 | 30
O=C1NCC2(CCCN(c3nc4ccccc4o3)CC2)O1 (stereo not drawn) | 4 | 2
O=C(c1ccc(Cl)cc1Cl)N1CCN(c2c3c(nc4ncnn24)CCC3)CC1 | 5 | 2
COc1ccc(NC(=O)CCC2CCN(Cc3nc4ccccc4[nH]3)CC2)c(OC)c1 | -3 | -5
N#Cc1cccc(/C=C(/Cl)c2nc3scc(-c4cccs4)c3c(=O)[nH]2)c1 | 4 | 2
CCc1noc(CCCC(=O)NCCc2cccc(Cl)c2Cl)n1 | 9 | 7
CN(C)CCCNC(=S)N1N=C(c2ccccc2)CC1c1ccccc1 (stereo not drawn) | -3 | -7
Cc1ccccc1-c1nc(OCC(C)C)nn1-c1ccc(NC(=O)C2CC2)cc1 | -2 | 5
CN1CCN(C(=O)c2ccc(Cl)cc2[N+](=O)[O-])CC1 | 1 | 1
O=C1CCCC(=O)N1CCS(=O)(=O)NCC1CCN(Cc2cccs2)CC1 | -1 | -1
CCCn1cnnc1CNC(=O)c1cn(Cc2ccccc2Cl)nn1 | 5 | 5
Cc1ccc(Nc2nc(NCCCn3ccnc3)nc3[nH]ncc23)cc1C | 6 | 4
NC(=O)c1cc2ccc(O)cc2oc1=Nc1ccccc1F | -3 | -4
CCCn1c(C)cn2c3c(=O)n(CCCO)c(=O)n(C)c3nc12 | 0 | 14
CC(=O)N(C(C)=O)c1c(N2CCOCC2)c2ccccc2oc1=O | -10 | -16
CCn1nccc1C(=O)N=c1sc2cc(C)cc(C)c2n1C | 4 | 5
CC(C)Nc1ccnc(NCc2cccnc2Oc2ccc(F)cc2F)n1 | 3 | 0
CCc1nc(N(CCC(=O)NCc2ccccc2)CCc2ccccc2)c2ccc(Cl)cc2n1 | -18 | -7
COc1cc(C(C)=O)ccc1Oc1ncnc2c1cnn2-c1ccc(C)cc1C | 2 | 3
Cc1ccc(-n2nc3c(c2NC(=O)C24CC5CC(CC(C5)C2)C4)CS(=O)(=O)C3)cc1 | -1 | -1
C=CCn1c(C)cn2c3c(=O)n(Cc4ccccc4Cl)c(=O)n(C)c3nc12 | 7 | 3
CCc1noc(C(C)N(C)CCOc2ccc(Cl)cc2)n1 (stereo not drawn) | 8 | 5
CCOC(=O)c1nc2cc(C)c(C)cc2nc1N1CCN(C(=O)c2cnc3c(c(C)nn3C)c2Cl)CC1 | 5 | 3
CN(C)c1ccccc1NC(=O)c1ccccc1OC(F)F | 5 | 3
COc1ccc(C2CCCCN2C(=O)Cc2c[nH]c3ccc(F)cc23)cc1 (stereo not drawn) | 2 | 5
COCC(=O)Nc1ccc(Nc2ccc(-n3nc(C)cc3C)nn2)cc1 | -3 | -9

Shown with two lines to a compound: part of the list above.
Under each structure: NPYLR7 ag, NPYLR7 ag max-min
> COCC(=O)Nc1ccc(Nc2ccc(-n3nc(C)cc3C)nn2)cc1
 : -3, -9
> O=[N+]([O-])c1cc(S(=O)(=O)N2CCCC2)ccc1NN=C1CCCC1
 : -1, -4
> COc1ccc(N2C(=O)/C(=C3/C(=O)N(C)c4ccccc43)SC2=S)cc1
 : 6, -5

Additional results follow.
mol | NPYLR7 ag | NPYLR7 ag max-min
Cc1nc(Nc2ccc(NC(=O)/C=C/c3ccccc3)cc2)cc(OC(C)C)n1 | 11 | 4
Oc1ccc(CCNc2ncnc3[nH]ncc23)cc1 | 1 | -1
COCCNC(=O)[C@@]1(OCc2ccccc2C)CC(OCc2ccccc2F)[C@H](O)[C@H](O)C1 (stereo partly drawn) | 14 | 18
O=C(CSc1ncnc2c1oc1ccccc12)N1CCN(c2ccccc2)CC1 | -7 | -11
CCc1nc2ccccc2n1NC(=O)c1ccc(Cl)cc1 | 3 | 0
c1ccc2c(c1)CCN(C1CCN(Cc3cc4n(n3)CCNC4)CC1)C2 | 7 | 4
CN(c1ccccc1)c1ccccc1NCc1nc(C2CC2)no1 | 2 | 0
CC(C)CC(=O)Nc1ccnn1C1CCN(Cc2ccc(CO)o2)CC1 | -3 | -5
CCCN(Cc1cccnc1)Cc1cccn1-c1nccs1 | 13 | 5
CC(NC(=O)CN1C(=O)NC2(CCCCC2)C1=O)c1ccc2ccccc2c1 (stereo not drawn) | -13 | -13
Cc1ccc(C(=O)Nc2ccc(N3CCC(NCC4CCCN(C(C)C)C4)CC3)cc2)c(C)c1 (stereo not drawn) | 8 | 1
Cc1ccccc1-c1cc(O)c2c(c1)CN(Cc1ccsc1)CCO2 | 1 | 1
Cc1ccc(-c2nnc(NC(=O)C(C)NC(=O)c3ccc(C(C)(C)C)cc3)s2)cc1 (stereo not drawn) | -4 | 1
Cc1ccc(C)c(C(C)Nc2cc(C)nc3nc(C(F)(F)F)nn23)c1 (stereo not drawn) | 7 | 3
Cc1ccccc1N1CCN(c2nc(-c3ccccc3)ncc2C(=O)N2CCOCC2)CC1 | 1 | 0
COc1ccc(Oc2cc(C)nc(SCc3ccccc3C)n2)cc1 | 14 | 16
O=S(=O)(c1cncc(F)c1)N(CCN1CCCC1)c1ccccc1 | 9 | 9
CC1(C)CCCC2(C)C(=O)C3(C(=O)O)OC3CC12 (stereo not drawn) | -9 | -16
CC(C)CNC(=O)c1coc(CN(Cc2cccc(Cl)c2)Cc2cccc(C(F)(F)F)c2)n1 | 18 | 11
COc1cc2nc(-c3ccc(C)o3)cc(C(=O)NCCc3ccccc3F)c2cc1OC | -6 | -10
Cc1cccnc1CNC(=O)c1ccc(-c2cc(-c3ccc(N4CCCCC4)cc3)n[nH]2)cc1 | -3 | 2
COc1ccc(-c2nc3ccc(C)cn3c2Nc2c(C)cccc2C)cc1 | 6 | 4
COc1ccc(C=C(C#N)c2nc3ccccc3[nH]2)cc1OC | 12 | 8
Cc1csc(NC(=S)NCc2ccccc2)c1 | 1 | -2
CCN1CCN(C(=O)c2ccc(N3CCC(NC(C)Cn4ccc5ccccc54)CC3)cc2)CC1 (stereo not drawn) | 16 | -1
O=C(NC1CCCCCC1)C1CCN(c2c(N3CCCC3)c(=O)c2=O)CC1 | 3 | 1
COc1ccc(CC(=O)NCC2CCCN(Cc3cc4ccccc4o3)C2)cc1 (stereo not drawn) | 15 | 1
O=C(c1ccc(S(=O)(=O)CC2CCCO2)nc1)N1CCCC1 (stereo not drawn) | 1 | 0
COc1ccc(OC)c(-c2cnc(-c3cccc(CNC(C)=O)c3)[nH]2)c1 | 1 | -3
O=C1OC(/C=C/c2ccccc2)=NC/1=C/c1cccc(Br)c1 | -1 | -3
COC(=O)C1CCN(C(c2ccco2)C2Sc3nc(C)nn3C2=O)CC1 (stereo not drawn) | 6 | 2
Cc1nc(SCc2nc3ccsc3c(=O)[nH]2)nc(C)c1C | 1 | -2
N#Cc1c(NC(=O)c2cc(-c3cccs3)on2)sc2c1CCC2 | -2 | -3
COc1cc(-c2nc3c(c(=O)[nH]2)CN(C(=O)c2ccc(-c4ccccc4)cc2)CC3)cc(OC)c1OC | -6 | 5
COc1ccc(CCOc2nc(-c3ccco3)n(-c3cccc(NC(=O)c4ccc(C(F)(F)F)cc4)c3)n2)cc1 | 18 | 8
O=S1(=O)C=CC(Cc2n[nH]c(Cc3ccccc3)n2)C1 (stereo not drawn) | 0 | -5
C=CCn1c(=O)c2c(C)c(C)sc2n2c(=S)[nH]nc12 | -10 | -13
COc1nc2ccccc2cc1CN1CCCC(CNC(C)=O)C1 (stereo not drawn) | 2 | -2
COc1ccc(OC)c(SCc2ccc(C(=O)N3C4CCC3CC(Oc3ccccc3C(C)C)C4)cc2)c1 (stereo not drawn) | 2 | 0
CCCSc1nc2c(c(=O)n1-c1ccc([N+](=O)[O-])cc1)SCC2 | 1 | 38
CCn1cc(-c2cc(C(=O)N(C)Cc3csc(C)n3)c3cc(F)ccc3n2)cn1 | 0 | -3
COc1cc2c(cc1-c1ccc(F)cc1)OCC(C)(C)CC2CO (stereo not drawn) | 4 | 9
O=C(O)c1ccc(N=Cc2nc(-c3ccccc3)oc2O)cc1 | -7 | -8
Cc1c(C(=O)NCc2ccc3c(c2)OCO3)sc(=O)n1Cc1ccc(S(=O)(=O)N(C)C)cc1 | 11 | 2
COC(=O)c1c(C)[nH]c(C(=O)CC#N)c1C | 4 | 7
CN(CC1Cc2ccccc2O1)C(=O)CCc1nnc(Cc2c[nH]c3ccccc23)o1 (stereo not drawn) | 2 | -1
CCCCCCCCCCCCCC(=O)Nc1ccc(N(C)C)c(C(=O)N(CC)CC)c1 | 4 | 12
CCC1(C)N(O)C(C)(C)C(c2ccc(F)cc2)=[N+]1[O-] (stereo not drawn) | -11 | -15
CCc1cccc(C(=O)NCCCN2CC(C)OC(C)C2)c1O (stereo not drawn) | -1 | -4
Cc1nn(C)c(N2CCOCC2)c1CN1CCN2CCNC(=O)C2C1 (stereo not drawn) | 6 | 5
CCc1cccc2c(C(CC(=O)N3CCN(Cc4ccc5c(c4)OCO5)CC3)c3cccc(OC)c3)c[nH]c12 (stereo not drawn) | 4 | 7

This is a subset, so the mix of outcomes need not match the whole.
